# Screens deposited in PubChem by National Center for Advancing Translational Sciences (NCATS).
# AmpC nodet inh = AmpC beta-lactamase inhibition, detergent-free assay; actives 1.8% (n = 71,000); AmpC nitrocefin hydrolysis, absorbance 480 nm, no detergent; potencies from a single point are estimates; AID 585; P00811; Potency, µM (highest dose often 28.7 µM), for inactives: at the highest dose activity change, negative = inhibition; active = falling curve, for most hits resting on a single point; inconclusive = weak or doubtful change; inactive = flat or rising curve; also: % of control where 0% means no effect; about half of the hits show no inhibition at the top dose; a quarter of the inactives give rising signals
# Target sequence (P00811 whole entry, looked up): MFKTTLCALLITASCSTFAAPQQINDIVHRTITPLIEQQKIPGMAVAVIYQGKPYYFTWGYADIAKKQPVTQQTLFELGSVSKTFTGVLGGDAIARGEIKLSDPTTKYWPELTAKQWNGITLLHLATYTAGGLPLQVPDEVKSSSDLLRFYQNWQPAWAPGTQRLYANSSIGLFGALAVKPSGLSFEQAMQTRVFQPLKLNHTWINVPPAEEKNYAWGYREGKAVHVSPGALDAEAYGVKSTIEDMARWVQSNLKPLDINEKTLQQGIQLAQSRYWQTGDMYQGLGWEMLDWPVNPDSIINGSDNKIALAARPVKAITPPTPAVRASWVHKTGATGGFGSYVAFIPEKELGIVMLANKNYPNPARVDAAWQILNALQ
#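 Enzyme, pH 7.0 phosphate. Compound titrations were pre-incubated with AmpC for 15 min at room temperature before nitrocefin (stock 800 uM) addition; product formation was recorded at 480 nm every 20 s for 4 min.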
# Numbers without * were called inactive; ? = inconclusive; & = joins results of further samples; [ ] = remark or other dose. Potency is read from the fitted curve at half-maximal effect.
SMILES,AmpC nodet inh
CC(=O)Nc1ccc(S(=O)(=O)NC(=O)C23CC4CC(CC(C4)C2)C3)cc1,-1%
CCS(=O)(=O)N1Cc2ccccc2CC1C(=O)OCC(=O)Nc1ccc(C)cc1 (stereo unspecified),16%
NC(=O)C1C(c2ccccc2)=C1c1ccccc1,-6%
CCCn1c(-c2ccc(F)cc2)nc2c(N3CCCN(Cc4ccccc4)CC3)nc(C)nc21,98%
O=c1c2ccccc2c(/C=N/n2cnnc2)c(O)n1-c1ccccc1,40%
CCN(CC)S(=O)(=O)c1cc(C(=O)NC2CCCCC2)ccc1C,28%
CC1CN(CC(O)COc2ccc(C(=O)c3ccccc3)cc2)CC(C)O1 (stereo unspecified),?
CCCCCN(C(=O)NC(=O)Nc1ccccc1OC)S(C)(=O)=O,-12%
CCC(=O)c1cccc2c1N=CC1=C(CC(C)(C)CC1=O)N2,21%
COc1ccccc1CNC(=O)COC(=O)C1=COCCO1,-5%
O=c1c(-c2cccc(F)c2)nc2cncnc2n1Cc1ccccc1Cl,29%
O=C(C1CCCCC1)N(Cc1nc2sc3c(c2c(=O)[nH]1)CCCC3)Cc1cccs1,-10%
O=C(Nc1cc(C(=O)Nc2ccc(S(=O)(=O)O)cc2S(=O)(=O)O)cc(C(=O)Nc2ccc(S(=O)(=O)O)cc2S(=O)(=O)O)c1)Nc1cc(C(=O)Nc2ccc(S(=O)(=O)O)cc2S(=O)(=O)O)cc(C(=O)Nc2ccc(S(=O)(=O)O)cc2S(=O)(=O)O)c1,-11%&-14%
Cc1ccc(Cl)cc1N1CCN(Cc2nnnn2C2CCCCC2)CC1,97%
O=c1[nH]cnc2nn(-c3ccccc3)nc12,-7%
CCCn1c(C(O)c2ccc(OCC)cc2)nc2ccccc21 (stereo unspecified),19%
CCC1Oc2ccc(C)cc2N(CC(=O)NCCc2ccc(OC)c(OC)c2)C1=O (stereo unspecified),96%
CCN(CC)CCn1c(=S)[nH]c2cc3c(cc2c1=O)OCO3,-17%
CC[C@H](C(=O)[C@H](C)[C@H](O)[C@H](C)CCc1ccc(C)c(O)c1C(=O)O)[C@H]1O[C@](CC)([C@@H]2CC[C@@](O)(CC)[C@H](C)O2)C[C@H]1C,11%[12.8 µM]
Cc1c(NC(=O)CCCCCN2C(=O)C3C4C=CC(C4)C3C2=O)c(=O)n(-c2ccccc2)n1C (stereo unspecified),2.5µM*[single pt active]
O[C@@H](COc1cccc2ccccc12)CN1CCOCC1,12%[5.75 µM]
COc1ccc(S(=O)(=O)N(C)CC(=O)NCc2cccnc2)cc1,-9%
CC(C)NC(=O)Cn1cnc2c1c(=O)n(C)c(=O)n2C,2%
Fc1ccc(Cn2nnc(-c3ccc(CN4CCOCC4)cc3)n2)cc1,102%
CN(Cc1nc2ccccc2c(=O)[nH]1)CC(O)COCc1ccco1 (stereo unspecified),-4%
O=C(Nc1cccc2nsnc12)c1ccc(F)cc1,-9%
Cc1ccc(Cl)cc1N1CCN(Cc2nc3c(c(=O)[nH]c(=O)n3C)n2CCc2ccccc2)CC1,61%
OCCCN=C1CCCCC1,5%[5.75 µM]
O=C(CC1COc2ccccc2O1)NCc1ccccc1 (stereo unspecified),12%
O=C(Nc1ccc(NC(=O)C2CC2)nc1)c1ccccn1,-1%
COC(=O)c1sccc1NC(=O)CN1CCN(c2ccc(F)cc2)CC1,83%
CN(C)c1ncnc2ccc(-c3ccccc3C(F)(F)F)cc12,80%
OCCN1CCN(C(=S)c2ccc(Cl)cc2)CC1,-8%
CCC(=O)N1CCCc2cc(S(=O)(=O)N3CCN(c4ccccn4)CC3)ccc21,79%
CS(=O)(=O)c1ccc2nc(NC(=O)CN3CCCCCC3)sc2c1,-12%
CCOc1ccc(C2C3=C(CCCC3=O)Nc3nc(C(F)(F)F)nn32)cc1OC (stereo unspecified),18%
COC(=O)c1c(NC(=O)c2c(C)noc2C)sc2c1CCCCCC2,9%
COC(=O)C1=C(NC(=O)c2ccc(C)c(C)c2)CCS1,-12%
CN1C(C(=O)Nc2ccccn2)=C(O)c2sccc2S1(=O)=O,-8%[12.8 µM]
O=C(Cc1cccs1)N1CCCC(c2nc(-c3ccc(S(=O)(=O)N4CCCC4)cc3)no2)C1 (stereo unspecified),70%

# Arranged by formula weight (ascending): 3 of the compounds above
SMILES,AmpC nodet inh
CN1C(C(=O)Nc2ccccn2)=C(O)c2sccc2S1(=O)=O,-8%[12.8 µM]
CS(=O)(=O)c1ccc2nc(NC(=O)CN3CCCCCC3)sc2c1,-12%
CCC(=O)N1CCCc2cc(S(=O)(=O)N3CCN(c4ccccn4)CC3)ccc21,79%

# Next part:
SMILES,AmpC nodet inh
O=C1OCCC1Sc1nnc(-c2ccc3c(c2)OCO3)n1-c1ccccc1 (stereo unspecified),37%
CCOc1ccc(N(CC(=O)NCCCOC)S(C)(=O)=O)cc1,-13%
Cn1c(=O)[nH]c(=O)c2c1nc(CN1CCN(c3ccc(F)cc3)CC1)n2CCCc1ccccc1,121%
CCNC(=O)Nc1cc2nc(C)n(Cc3ccc(Br)cc3)c2nc1C,56%
COCCNC(=O)c1ccc(N(C)S(=O)(=O)c2ccc(OC)c(OC)c2)cc1,12%
CCOc1ccccc1N=C1NC(=O)CS1,-3%
COC(=O)CCC(=O)Nc1ccc(S(=O)(=O)N2CCCCCC2)cc1,8%
Cc1cc(C)c2[nH]c(=O)c(C(c3nnnn3CC3CCCO3)N3CCC(C)CC3)cc2c1 (stereo unspecified),94%
Cc1cc(C)nc(NS(=O)(=O)c2cccs2)c1,-15%
CCCCOCCCNC(=O)c1ccccc1OCC,26%
CC(CC1C(C#N)=C(N)SC(N)=C1C#N)c1ccccc1 (stereo unspecified),-20%
CCNc1oc(COc2ccccc2F)nc1C#N,0%
Cc1nn(C)c(Cl)c1S(=O)(=O)N[C@@H](c1ccccc1)[C@]1(C)C[C@H]1[C@@H](C)C(=O)Nc1ccc2ccccc2c1,52%
CCN1CCN(Cc2c(OC)ccc3ccccc23)CC1,4%
CC1C(c2ccccc2)N(C)CCC12NC(=O)NC2=O (stereo unspecified),7%
COc1ccc2[nH]cc(CCNc3ncnc4ccc(-c5ccc(C(=O)N(C)C)cc5)cc34)c2c1,77%
CN(C)c1ccc(Cc2ccc(N(C)C)cc2)cc1,13%
Cc1cc(C(F)F)n2nc(C(=O)Nc3cccc(C(F)(F)F)c3)nc2n1,16%
CCOc1cccc(Oc2ccc(C(F)(F)F)cn2)c1,-8%
CCOc1ccccc1OCc1nn2c(-c3ccc(C)cc3)nnc2s1,45%
CC(=O)NS(=O)(=O)c1ccccc1,-4%
CC(=O)c1ccc(Nc2ncnc3c2oc2ccccc23)cc1,-7%
CCOc1ccc2[nH]c(=O)c(C(c3nnnn3C3CCCCC3)N3CCN(C)CC3)cc2c1 (stereo unspecified),26%
COC(=O)c1c(C(=O)NCc2ccccc2)ncn1CC(O)COc1ccccc1 (stereo unspecified),66%
C[C@@H](C(=O)Nc1ccc2ccccc2c1)[C@H]1C[C@]1(C)[C@H](NC(=O)OCc1ccccc1)c1ccccc1,7.9µM*
Cc1c(-c2ccccc2)oc2cc(O)ccc2c1=O,-15%
CC(=O)Nc1cc(S(=O)(=O)C(F)(F)F)ccc1Cl,8%
Cc1noc(C)c1S(=O)(=O)NCc1ccc2c(c1)OCO2,11%
CC1CCN(c2nc3c(c(=O)[nH]c(=O)n3C)n2CCSc2nc3ccccc3o2)CC1,23%
N[C@@H](CS(=O)O)C(=O)O,4%
C=CCn1c(SCC(=O)Nc2ccccc2OC)nnc1-c1ccco1,21%
Cc1sc2ncnc(Oc3ccc(-n4ccnc4)cc3)c2c1C,80%
COC(=O)COc1ccc(S(=O)(=O)NCc2cccnc2)cc1,10%
Cc1ccc2c(c1)NC(=O)C(CC(=O)NCCN(CC(C)C)CC(C)C)O2 (stereo unspecified),6%
OCCN1CCOCCN(CCO)CCN(CCO)CC1,-14%
Cc1cc2c(c(=O)n1Cc1cccnc1)C(c1ccc(F)cc1)C(C#N)=C(N)O2 (stereo unspecified),-5%
CCc1c(C)[nH]c2ccccc2c1=O,3%
CCOC(=O)N1CCN(C(=O)CSc2nnc(C3COc4ccccc4O3)o2)CC1 (stereo unspecified),94%
Cc1oc(C(=O)O)cc1CSCc1ccoc1C(=O)O,-5%
COc1ccc(S(=O)(=O)N2CCC(C(N)=O)(N3CCCCC3)CC2)cc1,19%
N=C1N=C(N)c2cc3ccccc3cc21,-12%
CC1(C)NC(=O)N(CCOc2cccc(Cl)c2Cl)C1=O,20%
Cc1ncc(C23CC4CC(CC(C4)C2)C3)[nH]1,-2%
CCOC(=O)N1CCN(C(=O)c2cn(-c3ccc(C)c(C)c3)c(=O)c3ccccc23)CC1,97%
O=C(NCc1ccco1)C(c1cccs1)N(Cc1ccccc1)C(=O)Cn1nnc2ccccc21 (stereo unspecified),7%
CCOC(=O)Cn1c(=O)oc2cc(S(=O)(=O)NCc3ccccn3)ccc21,17%
CCC(C)NS(=O)(=O)c1ccc(NS(C)(=O)=O)cc1 (stereo unspecified),6%
COC(=O)/C(=C1/Oc2cc3c(cc2S1)OCO3)C(F)(F)F,-16%
Cn1cc(-c2nc3cnc(Oc4cccc(Cl)c4)nc3n(C3CC3)c2=O)c2ccccc21,-7%
O=C(CSc1nccc(=O)[nH]1)N1CCCc2ccccc21,-5%

# Later entries
SMILES,AmpC nodet inh
Cc1ccc(CSC2=NCCN2C(=O)c2ccco2)cc1,20%
O=C(CSc1nnc(-c2ccncc2)n1Cc1ccco1)Nc1ccccc1Cl,34%
O=C(C[n+]1ccc2ccccc2c1)c1ccc2ccc3ccccc3c2c1,-11%[5.75 µM]
CN(C)S(=O)(=O)N1CCN(CC(O)COc2ccc3cc(Br)ccc3c2)CC1 (stereo unspecified),124%
N#C/C(=C(\O)C(=O)O)c1ccc(-c2cccc3ccccc23)cc1,-13%[5.75 µM]
O=c1[nH]c(SCc2ccccc2[N+](=O)[O-])nc2nc[nH]c12,8%[5.75 µM]
O=C1CC(c2ccc3c(c2)OCO3)Sc2nc3ccccc3n21 (stereo unspecified),4%
CCOCCCNc1nc(=S)[nH]c2cc(OC)c(OC)cc12,-19%
O=C1CSC(c2cccs2)N1c1ccccc1 (stereo unspecified),2%
COc1ccc(CNc2nc(-c3cccnc3)nn2C(=O)c2cccs2)cc1,62%
COc1ccc(C2N3CC4(C)CN2CC(C)(C3)C4)cc1OC (stereo unspecified),-12%
Cc1ccc(S(=O)(=O)NC(CC(=O)O)c2ccccc2)c(C)c1 (stereo unspecified),-6%
Cc1cccc2cc3c(N)c(C#N)sc3nc12,5%
Cc1nn(-c2ccccc2)c2c1C(c1ccco1)C(C#N)=C(N)O2 (stereo unspecified),-4%
CCN1CCN(Cc2c(O)ccc3c(=O)c(-c4ccccc4OC)coc23)CC1,10%
CCCCOC(=O)Cn1cnc2ccc(Br)cc2c1=O,31%
CCCCN(c1ccccc1)S(=O)(=O)c1ccc2c(c1)CCN2C(=O)CCC(=O)O,17%
O=C(NCC1CCCO1)c1cc2ccccc2[nH]1 (stereo unspecified),8%
CS(=O)(=O)N1CCC2(CC1)CN(Cc1ccc(C#N)cc1)C2,16%
NS(=O)(=O)c1cccc2c1c([N+](=O)[O-])cc1[nH]c(=O)c(=O)[nH]c12,-10%
CC1CCC(NC(=O)CN2C(=O)C3CCCN3c3ncc(Cl)cc32)CC1 (stereo unspecified),28%
Cc1c(C(=O)O)oc2c1C(O)CC(C)(C)C2 (stereo unspecified),-1%
CCCCS(=O)CC(CS(=O)CCCC)OC(=O)c1ccccc1 (stereo unspecified),45%
O=c1[nH]c(SCc2n[nH]c(=S)n2-c2ccccc2)nc2ccccc12,1%
CC1CN(S(=O)(=O)c2cn(C)c(=O)n(C)c2=O)CC(C)O1 (stereo unspecified),14%
O=C1c2[nH]nc(-c3ccccc3O)c2C(c2cccc(Cl)c2)N1Cc1ccco1 (stereo unspecified),-2%
Cc1ccc2c(c1)-c1c(cnn1CC(=O)N(CCC#N)c1ccccc1)CO2,145%
O=C(c1ccccc1Cl)N1CCCC(c2nc3c(nnn3Cc3ccccc3)c(=O)[nH]2)C1 (stereo unspecified),43%
CCCN(CCC)C(=O)c1ccc2c(c1)N(Cc1ccccc1)C(=O)CS2=O (stereo unspecified),40%
COc1ccc(C(N)CCc2ccc(C)o2)cc1 (stereo unspecified),-3%
COc1ccc(N(C)C(=O)CCC(=O)Nc2ccc3nc(N4CCOCC4)cc(C)c3c2)c(OC)c1,141%
CCOc1ccccc1N1C(=O)c2ccc(C(=O)Nc3cccnc3)cc2C1=O,32%
CCn1c(C)c2c(C)nnc(C)c2c1C,-5%

# Filtered by structure: those above containing an aryl methoxy group.
SMILES,AmpC nodet inh
CCCCCN(C(=O)NC(=O)Nc1ccccc1OC)S(C)(=O)=O,-12%
COc1ccccc1CNC(=O)COC(=O)C1=COCCO1,-5%
CCC1Oc2ccc(C)cc2N(CC(=O)NCCc2ccc(OC)c(OC)c2)C1=O (stereo unspecified),96%
COc1ccc(S(=O)(=O)N(C)CC(=O)NCc2cccnc2)cc1,-9%
CCOc1ccc(C2C3=C(CCCC3=O)Nc3nc(C(F)(F)F)nn32)cc1OC (stereo unspecified),18%
COCCNC(=O)c1ccc(N(C)S(=O)(=O)c2ccc(OC)c(OC)c2)cc1,12%
CCN1CCN(Cc2c(OC)ccc3ccccc23)CC1,4%
COc1ccc2[nH]cc(CCNc3ncnc4ccc(-c5ccc(C(=O)N(C)C)cc5)cc34)c2c1,77%
C=CCn1c(SCC(=O)Nc2ccccc2OC)nnc1-c1ccco1,21%
COc1ccc(S(=O)(=O)N2CCC(C(N)=O)(N3CCCCC3)CC2)cc1,19%
CCOCCCNc1nc(=S)[nH]c2cc(OC)c(OC)cc12,-19%
COc1ccc(CNc2nc(-c3cccnc3)nn2C(=O)c2cccs2)cc1,62%
COc1ccc(C2N3CC4(C)CN2CC(C)(C3)C4)cc1OC (stereo unspecified),-12%
CCN1CCN(Cc2c(O)ccc3c(=O)c(-c4ccccc4OC)coc23)CC1,10%
COc1ccc(C(N)CCc2ccc(C)o2)cc1 (stereo unspecified),-3%
COc1ccc(N(C)C(=O)CCC(=O)Nc2ccc3nc(N4CCOCC4)cc(C)c3c2)c(OC)c1,141%

# Only part of the results is shown; the hit share may differ from the screen's.
